Screening results (PubChem)
gsp antag: antagonists of gsp mutant (McCune-Albright syndrome). gsp-mutant cells, cAMP HTRF, 30 min; control for the full effect not named in the record. Potency, µM (series often up to 76.9 µM), for the others: at the highest dose activity change, negative = inhibition, usual class: inhibitors. 340,000 tested, 0.4% active. AID 624288; active = falling curve of any shape with a large fitted effect; inconclusive = falling curve, mostly with a smaller effect; inactive = flat or rising curve; cell line not stated here;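 note: intracellular cAMP measured with PDE inhibitor Ro 20-1724 present during compound exposure; potency is the fitted concentration of half-maximal effect; % is set by controls: 0 for no effect and ±100 for the full control effect; nearly all actives have a fitted effect of over 65% in size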
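Measurement of cellular cAMP by homogeneous time-resolved fluorescence following a 30 min compound exposure at 37C. The PDE inhibitor […] was present throughout; the assay buffer was DPBS with 0.05% BSA and 0.005% Tween 20.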
TRPML1 blocker: inhibitors of human TRPML1 channel | TRPML1-inducible cells, Ca2+ dye fluorescence, FDSS; active compounds read low; inhibition of EC80 agonist-evoked calcium signal | activity change, negative = inhibition, % (concentration not given with the values) | 390,000 tested, 0.02% active | AID 624415; in the data active means activity change below about -50%; inconclusive means about -30% to -50%; inactive means above about -30%;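 note: stimulus is agonist 54-4 at its EC80 concentration; % is set by controls: 0 for no effect and ±100 for the full control effect; the text of the record puts the active cut at -80%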
Target sequence (Q9GZU1 whole entry, looked up): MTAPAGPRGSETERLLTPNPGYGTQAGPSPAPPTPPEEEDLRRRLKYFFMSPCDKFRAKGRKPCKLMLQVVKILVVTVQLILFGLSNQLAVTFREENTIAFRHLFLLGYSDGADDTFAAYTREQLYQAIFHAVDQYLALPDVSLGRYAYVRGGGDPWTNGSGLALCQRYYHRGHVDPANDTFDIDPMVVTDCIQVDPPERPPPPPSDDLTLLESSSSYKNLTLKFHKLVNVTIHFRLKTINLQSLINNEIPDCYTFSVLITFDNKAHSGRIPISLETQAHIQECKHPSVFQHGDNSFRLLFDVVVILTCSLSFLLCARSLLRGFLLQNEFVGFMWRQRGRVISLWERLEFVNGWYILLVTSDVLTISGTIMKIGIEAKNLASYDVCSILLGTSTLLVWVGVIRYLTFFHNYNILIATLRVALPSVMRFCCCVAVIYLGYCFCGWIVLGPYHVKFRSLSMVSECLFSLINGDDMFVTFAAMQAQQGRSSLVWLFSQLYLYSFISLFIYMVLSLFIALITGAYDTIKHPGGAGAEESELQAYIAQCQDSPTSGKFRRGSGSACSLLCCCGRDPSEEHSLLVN
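Calcium fluorescence in TRPML1-DL cells induced overnight with Tet: a 110 s read after compound pin addition, then a 110 s antagonist read after challenge with 54-4 at 4 uM final (EC80).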
Menin MLL FP FL: menin-MLL binding inhibition, fluorescein peptide; FP activity change, % at 61.4 µM; Fluorescence polarization, fluorescein-MLL peptide displacement from menin; 290,000 tested, under 10 active; AID 1766; inconclusive = falling polarisation curve, or a change in total fluorescence; inactive = total fluorescence flat and polarisation flat or rising; no compound was filed as active; the % refers to the polarisation; negative = inhibition;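 note: % of control where 0% means no effect; inhibitors lower the polarisation; unlabelled MLL peptide was the positive control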
gsp ag: gsp mutant agonism; gsp mutant cells, cAMP HTRF, 30 min; control for the full effect not named in the record; Potency, µM (highest dose often 76.9 µM), inactives show at the top dose activation (cAMP increase), usual class: activators; 340,000 tested, 0.13% active; AID 624287; active = well fitted activation curve with a large enough effect; inconclusive = small, poorly fitted or top-dose-only effect, or another doubt; inactive = no such curve, though single readings can be large or run the other way; cell line not stated here;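 note: phosphodiesterase inhibitor Ro 20-1724 added with compounds to block cAMP breakdown; potency is the fitted concentration of half-maximal effect; nearly all actives have a fitted effect of over 60% in size; about a fifth of the inactives were tested at one dose only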
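Cells in DMEM/10% FBS with G418 were pretreated with compounds in DMSO plus […] (300 uM stock) for 30 min at 37C. cAMP was measured by HTRF (cAMP-d2 plus anti-cAMP antibody-K) after 30 min at room temperature.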
TRPV1 PAM: enhances activation of the human vanilloid receptor TRPV1; TRPV1-expressing cells, Fluo-8 calcium influx, capsaicin EC20 potentiation; host cell line not named in the record; control for the full effect not named in the record; potentiation, % at 8.33 µM; Q8NER1; 320,000 tested, 0.02% active; active means potentiation above 80%; inconclusive means 30% to 80%; inactive means below 30%; note: 0% is about no effect
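Cells expressing TRPV1 were dye-loaded with Fluo-8 and read kinetically: 10 s baseline, 3 min after compound (agonist portion), then 2 min after EC20 capsaicin (allosteric enhancer portion). Calcium-bound dye fluorescence at 480/520 nm.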
ClpP mod: qHTS Assay for Activators of ClpP. ATP-dependent Clp protease proteolytic subunit (Bacillus subtilis (strain 168)), P80244. purified B. subtilis ClpP, FRET peptide cleavage, 20 min. Potency, µM (highest dose often 57.5 µM), for inactives: at the top dose activity change, negative = active. 340,000 tested, 1.9% active. AID 651965, 2013; active = well fitted falling curve with a large enough effect; inconclusive = small, poorly fitted or top-dose-only effect; inactive = no such curve, though single readings can be large or run the other way; note: potency is the fitted concentration of half-maximal effect; the source files actives as falling curves though it sought activators and does not explain the sign; nearly all actives have a fitted effect of over 65% in size; many hits overshoot -100%
Target sequence (P80244 whole entry, looked up): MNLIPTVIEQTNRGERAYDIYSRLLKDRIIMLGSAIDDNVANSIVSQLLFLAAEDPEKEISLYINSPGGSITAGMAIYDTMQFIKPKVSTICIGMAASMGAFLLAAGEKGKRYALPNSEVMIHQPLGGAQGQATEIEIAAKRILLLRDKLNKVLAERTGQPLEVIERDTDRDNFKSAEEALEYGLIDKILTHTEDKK
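Buffer: 100 mM Tris/HCl pH8, 100 mM KCl, 0.05% low protease BSA, 2.5% glycerol, 0.01% Tween-20. ClpP 10 microg/mL final; 20 min RT; delta FRET normalized to ADEP and DMSO controls.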
Sfp inh: inhibitors of Bacillus subtilis Sfp phosphopantetheinyl transferase | Q9F4F7 | Biochemical Sfp PPTase activity, qHTS | Potency, µM, without a hit: max response, negative = inhibition, most hits filed as inhibitors | 310,000 tested, 3.5% active; active = well fitted inhibition curve with a large enough effect; inconclusive = small, poorly fitted or top-dose-only effect, or another doubt; inactive = no such curve, though single readings can be large or run the other way;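 note: the enzyme is Sfp with the accession as filed and its product quenches rhodamine fluorescence; potency is the fitted concentration of half-maximal effect; 0% = enzyme reaction without inhibitor and -100% = no enzyme wells; top concentration of the series not given in the record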
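Step 1, compound plus 15 nM Sfp-PPTase, 15 min, room temperature. Step 2, add rhodamine-CoA (5 uM) and BHQ-2-YbbR (12.5 uM). Step 3, read 525/598 nm fluorescence at 0 and 30 min.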
* hit, by the source's call; ? = inconclusive; . = not tested or not shown; [ ] = another dose, or the depositor's remark.

SMILES,TRPV1 PAM,gsp antag,TRPML1 blocker,ClpP mod,Sfp inh,Menin MLL FP FL,gsp ag
C/C(=C(\C#N)C(=O)NCCN1CCOCC1)N(C)C,24,5%,22,-2.5%,9%,3.0,11%
O=C(NCc1ccccc1)c1ccc2nc(N3CCOCC3)sc2c1,-12,-1%,29,.,7%,2.0,6%[15.4 µM]
CC(=O)Nc1ccccc1C(=O)C(=O)Nc1cccc(C(=O)NC2CC2)c1,2,10%,-6,-2.7%,5%,0.1,11%
CC(OC(=O)CCC(=O)c1ccccc1)C(=O)Nc1ccc(F)cc1 (stereo not drawn),-10,-6%,-2,.,.,.,14%[15.4 µM]
Cc1cccc(C(C)C)c1NC(=O)CN(C)Cc1cccc(F)c1,-24,-5%,-24,-4.1%,1%,5.2,-48%[inhibitor]
CCCCSc1nc(O)c(Cc2ccccc2)c(=O)[nH]1,12,-18%,5,-0.1%,3%,4.3,-19%
Cc1cc(NC(=O)CSc2ccc3nnc(-c4cccnc4)n3n2)no1,-17,16%,0,3.7%,19%,12,?
O=C(COC(=O)c1ccc(CNS(=O)(=O)c2ccc(F)c(Cl)c2)cc1)NC1CCCCCCC1,3,11%,27,-6.4%,20%,0.5,-18%
COc1ccc(C=O)cc1COc1ccc2c(c1)OCO2,3,18%,0,.,.,.,8%[15.4 µM]
COc1cc(NC(=O)c2cccs2)c(OC)cc1NC(=O)c1ccco1,-5,-3%,47,-2.7%,8%,1.2,13%[15.4 µM]
COC(=O)c1ccccc1NC(=O)c1cn(-c2ccc(C)c(C)c2)c(=O)c2ccccc12,6,-13%,11,?,-8%,4.2,-25%
CCOC(=O)N1CCN(C(=O)c2ccc(C#CC3(O)CCCCC3)cc2)CC1,0,-2%,35,-1.8%,12%,2.9,2%

(more compounds)
SMILES,TRPV1 PAM,gsp antag,TRPML1 blocker,ClpP mod,Sfp inh,Menin MLL FP FL,gsp ag
O=C(Nc1ccccc1)Nc1nnc(-c2cccs2)s1,6,0%,-8,?,5%,5.5,?
CCCc1nnc(NC(=O)c2cccs2)s1,4,-5%,6,-2.8%,11%,-2.4,-15%
Cc1cc(C(=O)Nc2cccc3c2O[C@@H](CN(C)S(C)(=O)=O)[C@H](C)CN([C@@H](C)CO)C3=O)n(C)n1,.,10%,-10,-1.3%,.,.,5%
COc1ccccc1NC(=O)Nc1ccc(S(=O)(=O)Nc2onc(C)c2C)cc1,16,14%,3,1.1%,.,.,-43%[inhibitor]
Nc1ccc(C(=O)O)cc1S(=O)(=O)O,-8,2%,-8,.,9%,-0.2,23%[15.4 µM]
Cc1cc(C)c2c(n1)sc1c(=O)n(CC(=O)c3ccccc3)cnc12,-11,-12%,2,0.4%,14%,0.7,-3%[15.4 µM]
CC(=O)NC(C(=O)OCC(=O)N(c1ccccc1)c1ccccc1)C(C)C (stereo not drawn),-1,1%,-1,.,12%,-1.8,-1%[15.4 µM]
O=S(=O)(c1ccc(F)cc1)c1nc(-c2ccccc2)oc1N1CCOCC1,0,-18%,-20,-1.6%,17%,3.1,-36%[inhibitor]
CCOc1ccccc1N1CCN(C(=O)c2cccs2)CC1,-7,-6%,9,.,4%,-0.6,-1%
CCOC(=O)c1[nH]c(C(=O)O)c(CCC(=O)OC)c1C,-10,0%,4,-2.3%,-6%,0.2,-22%
COc1ccc(C(C)=O)cc1COC(=O)CNC(=O)c1ccccc1F,-3,-7%,-2,-0.3%,8%,8.2,-2%
CCn1c(SCC(=O)c2ccc(Cl)cc2)nnc1-c1cccs1,-4,-8%,7,-6.4%,-7%,-1.9,-3%

Other records follow.
SMILES,TRPV1 PAM,gsp antag,TRPML1 blocker,ClpP mod,Sfp inh,Menin MLL FP FL,gsp ag
CCCNC(=O)Nc1cccc(C(=O)OC)c1,4,2%,-20,?,11%,-4.8,15%
CCC1=NN2C(=N)/C(=C/c3ccc(OS(=O)(=O)c4ccccc4)c(OC)c3)C(=O)N=C2S1,?,-20%,19,.,-3%,2.4,15%
COc1ccc(NC(=O)c2ccc(-c3nn(C)c(=O)c4ccccc34)cc2)cc1,0,-6%,14,-3.1%,11%,8.5,-2%[15.4 µM]
O=P(OC1CCS(=O)(=O)C1)(c1ccccc1)c1ccccc1 (stereo not drawn),0,-2%,-3,-0.4%,7%,7.4,-5%
Cc1c(NS(C)(=O)=O)cccc1-c1nc2cccnc2s1,-6,0%,-8,-10%,9%,3.1,5%
CC(=O)Nc1ccc(OCC(O)CNC(C)C)cc1 (stereo not drawn),.,0%,10,1.1%,32%,3.5,.
Cc1ccc(C2=Nc3ccccc3N(C(=O)c3ccccc3)C(C)C2)cc1 (stereo not drawn),2,-25%,8,2.4%,-3%,0.3,-35%[inhibitor]
COc1ccc(NC(=O)CN(C)C(=O)c2cccc(-n3cccc3)c2)cc1,6,-11%,-2,.,.,.,-10%[15.4 µM]
O=C(Nc1ncc(Br)s1)C(Cc1ccccc1)n1cccc1 (stereo not drawn),18,-17%,18,-1.6%,-10%,4.1,2%
O=C(/C=C/c1ccccc1Cl)Nc1cccc(S(=O)(=O)NC2=NCCCCC2)c1,-9,-24%,6,0.3%,5%,.,-5%[15.4 µM]
COC(=O)c1[nH]c2ccccc2c1NC(=O)CN1CC(C)OC(C)C1 (stereo not drawn),-17,0%[15.4 µM],-19,-22%,2%,-4.5,-2%
CCCCn1c(N)c(N(CC(C)C)C(=O)C2CCN(C(=O)c3ccc(Cl)cc3)CC2)c(=O)[nH]c1=O,12,7%,-3,1.1%,.,.,-11%[15.4 µM]

Additional entries
SMILES,TRPV1 PAM,gsp antag,TRPML1 blocker,ClpP mod,Sfp inh,Menin MLL FP FL,gsp ag
COc1ccc(-c2csc(NC(=O)Nc3ccccc3)n2)cc1,-5,4%,-17,-3.1%,12%,3.9,30%
C/C(=N\NC(=S)Nc1ccc(C)cc1)c1cc2ccccc2o1,15,-24%,34,.,-14%,-0.2,4%[15.4 µM]
Cc1cccc(OCCCC(=O)Nc2ccc3c(c2)OCO3)c1,-17,-9%,3,0.7%,15%,-0.2,0%
Cc1nnc(SCC(=O)Nc2cc(S(C)(=O)=O)ccc2Cl)n1Cc1ccccc1,3,3%,-4,.,15%,-2.9,2%
Cc1cccc(CN2CCN(CC(=O)NCc3cccs3)C2=O)c1,2,17%,25,0.3%,17%,1.8,-20%
CCc1nnc(NC(=O)c2nc3nc(C)cc(C)n3n2)s1,0,1%,5,-2.0%,?,2.6,-25%
CC(C)C[C@@H](CNCC(=O)[C@H](CC(C)C)NC(=O)c1[nH]cnc1C(=O)N[C@@H](C)CN)NC(=O)c1nc[nH]c1C(=O)N[C@@H](C)C(=O)O,.,2%,-5,2.4%,.,.,.
COc1ccccc1C(CNC(=O)CNC(=O)c1ccc(Cl)c(Cl)c1)N1CCCC1 (stereo not drawn),-2,7%,12,-1.2%,.,.,25%
CC(=O)NC(CCS(C)(=O)=O)C(=O)Nc1cccc(C(C)=O)c1 (stereo not drawn),13,3%,5,-5.1%,14%,4.1,-5%
CCN(CC)Cc1c(C(=O)N/N=C(\C)c2ccncc2)nnn1-c1nonc1N,13,0%,5,.,10%,-0.5,-23%
Cc1onc(-c2ccccc2Cl)c1C(=O)NCC1CCCO1 (stereo not drawn),0,1%,-1,-3.4%,15%,0.1,2%
COc1ccccc1C(=O)Nc1nc2cc3c(cc2s1)OCO3,1,11%,.,3.8%,10%,13,?

(list continues)
SMILES,TRPV1 PAM,gsp antag,TRPML1 blocker,ClpP mod,Sfp inh,Menin MLL FP FL,gsp ag
COc1ccccc1/C=C1\SC(=S)N(NS(=O)(=O)c2ccc(C)cc2)C1=O,23,?,-14,1.9%,-15%,-15,?
COc1ccc(CCNC(=O)CNC(=O)Cn2cnc3sc(C)c(C)c3c2=O)cc1OC,6,7%,-10,.,13%,4.5,?
COC(=O)C1=C(C)N(CCCC(=O)O)C(=O)NC1c1ccc([N+](=O)[O-])cc1 (stereo not drawn),.,13%,-6,1.0%,.,.,10%
Oc1c(CN2CCOCC2)cc(COCc2ccccc2)c2cccnc12,7,-3%,11,1.7%,22%,-1.8,-10%[15.4 µM]
COc1ccc(/C=C/C(=O)O)cc1S(=O)(=O)NCc1cccnc1,-2,10%,11,0.2%,12%,?,10%[15.4 µM]
Cc1cccc(NC(=O)CNC(=O)N2CC(=O)Nc3ccccc32)c1C,3,7%,-14,-2.3%,8%,-5.7,-2%
CCOc1cc(-c2cc(-c3ccc(N)cc3)nc(N)c2C#N)ccc1O,0,16%,15,?,-1%,9.3,28%
CCOC(=O)/C(=N\Nc1ccccc1Cl)N(C)C1CCS(=O)(=O)C1 (stereo not drawn),0,-6%,-23,.,18%,0.0,6%
O=C(COC(=O)c1cnccn1)NC(=O)c1ccccc1,2,15%,16,-4.9%,.,.,-1%[15.4 µM]
CC(C)Oc1ccccc1C1CC(=O)Nc2cc3c(cc21)OCCO3 (stereo not drawn),-16,11%,-2,1.7%,1%,-0.1,?
COc1ccc(NC(=O)CCN2C(=O)C3CC=CCC3C2=O)cc1S(=O)(=O)N1CCCCC1 (stereo not drawn),4,9%,15,-1.2%,.,.,1%[15.4 µM]
O=C(NNc1cc(N2CCOCC2)nc(N2CCOCC2)n1)c1ccc(Cl)c(Cl)c1,-3,-4%,3,1.8%,-8%,0.3,?

Carrying on.
SMILES,TRPV1 PAM,gsp antag,TRPML1 blocker,ClpP mod,Sfp inh,Menin MLL FP FL,gsp ag
Cc1cc(OCC(=O)N(Cc2ccco2)C2CCS(=O)(=O)C2)cc(C)c1Cl (stereo not drawn),?,0%,34,28µM*,-1%,5.0,0%[15.4 µM]
Cc1cnc(C(=O)OCC(=O)Nc2ccc(Br)c(C)c2)cn1,-9,-1%,1,0.7%,.,.,?
c1ccc(-c2csc(Nc3ccc4c(c3)OCCO4)n2)cc1,6,11%,11,-0.7%,?,?,26%
C=CCNC(=O)CSc1nnc(-c2ccccc2Cl)n1-c1c(C)n(C)n(-c2ccccc2)c1=O,8,9%,13,0.8%,27%,0.0,3%
